# NS1 inh – influenza NS1 inhibition. S. cerevisiae slowed by influenza A NS1, growth recovery by OD600. Potency, µM (top dose mostly 46.1 µM), without a hit: at the top dose activity, positive = more growth. actives 0.4% (n = 270,000). AID 2326; active means well fitted rising curve with a large enough effect; inconclusive means small, poorly fitted or top-dose-only effect; inactive means no such curve, though single readings can be large or run the other way; note: nearly all actives have a fitted effect of over 50% in size
#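 Recovery from NS1-induced slow growth read by OD600 in budding yeast switched to galactose assay medium (pH 6.0, -URA) at 1:100 dilution. Compound 23 nl per well; the matching strain lacking NS1 serves as control.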
# LASV entry inh – blocks Lassa virus binding to or entry into cells. AID 540256. Lassa virus pseudotype entry inhibition, cell reporter; control for the full effect not named in the record. actives 1.2% (n = 300,000). Potency, µM (titrated, usually from 37.9 µM), inactives show top-dose activity change, negative = inhibition, hits mostly inhibitors; active means well fitted inhibition curve with a large enough effect; inconclusive means small, poorly fitted or top-dose-only effect, or effect the other way; inactive means flat fitted curve, though single readings scatter; tested in HEK293 cells; note: % is set by controls: 0 for no effect and ±100 for the full control effect; nearly all actives have a fitted effect of over 50% in size; luciferase read-out
# 2A StopGo – FMDV 2A StopGo reporter, luciferase signal | actives 1.2% (n = 410,000) | AID 1159524 | human cells with a luciferase reporter of 2A StopGo recoding; control for the full effect not named in the record | Potency, µM (top dose mostly 57.9 µM), inactives show top-dose signal change, negative = less light; active = well fitted falling curve with a large enough effect; inconclusive = small, poorly fitted or top-dose-only effect; inactive = no such curve, though single readings can be large or run the other way; tested in HEK293T cells; note: % is set by controls: 0 for no effect and ±100 for the full control effect; nearly all actives have a fitted effect of over 45% in size; luciferase light after 4 h
# MARV entry inh – Marburg virus entry inhibition; Marburg virus pseudotyped entry inhibition, cell reporter; control for the full effect not named in the record; about a third of the inactives were read at about 46 µM; Potency, µM (highest dose often 37.8 µM), inactives show at the highest dose activity change, negative = inhibition, hits mostly inhibitors; actives 1.8% (n = 300,000); active = well fitted inhibition curve with a large enough effect; inconclusive = small, poorly fitted or top-dose-only effect, or effect the other way; inactive = flat fitted curve, though single readings scatter; tested in HEK293 cells; about a fifth of its hits are not listed in these tables; note: % is set by controls: 0 for no effect and ±100 for the full control effect; luciferase read-out
# RE007 growth inh – less growth of the S. pombe RE007 Vpr strain; S. pombe RE007 Vpr strain, BacTiter-Glo ATP luminescence, 24 h; control for the full effect not named in the record; Potency, µM (titrated, usually from 92.2 µM), for the others: at the highest dose activity change, negative = less growth; actives 0.21% (n = 360,000); AID 651644; active = well fitted falling curve with a large enough effect; inconclusive = small, poorly fitted or top-dose-only effect; inactive = no such curve, though single readings can be large or run the other way;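 note: % is set by controls: 0 for no effect and ±100 for the full control effect; nearly all actives have a fitted effect of over 50% in size; the assay follows cell death caused by Vpr and the record does not say whether a fall means rescue or toxicity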
#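 Fission yeast RE007 carrying one integrated HIV-1 vpr copy, seeded at OD 0.01 in PMG+AL medium with 23 nL pinned compound. Grown 24 h at 30 degrees; viability read by BacTiter-Glo luminescence after 5 min.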
# Cruzain inh Det – inhibitors of Trypanosoma cruzi cruzain with detergent | P25779 | purified cruzain, Z-FR-AMC fluorescence, 0.01% Triton | Potency, µM, inactives show max response, negative = inhibition, hits mostly inhibitors | actives 0.43% (n = 200,000);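 note: plate controls were neutral wells for no effect and buffer without enzyme for full effect; nearly all actives have a fitted effect of over 40% in size; top concentration of the series not given in the record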
# Target sequence (P25779 123-467 limits assumed): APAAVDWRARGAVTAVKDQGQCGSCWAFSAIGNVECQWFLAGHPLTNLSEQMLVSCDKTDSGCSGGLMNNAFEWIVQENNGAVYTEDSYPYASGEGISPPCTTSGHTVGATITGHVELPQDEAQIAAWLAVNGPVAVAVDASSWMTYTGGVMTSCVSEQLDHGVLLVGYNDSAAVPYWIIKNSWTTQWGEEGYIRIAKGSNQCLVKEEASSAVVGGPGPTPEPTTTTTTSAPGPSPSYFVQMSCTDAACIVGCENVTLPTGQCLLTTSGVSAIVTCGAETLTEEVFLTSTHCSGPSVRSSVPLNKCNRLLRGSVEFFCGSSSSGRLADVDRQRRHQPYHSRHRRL
#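 Cysteine protease activity tested under reducing, mildly acidic conditions (100 mM sodium acetate pH 5.5, 5 mM DTT) plus 0.01% Triton X-100. Cruzain 1.5 nM; substrate Z-FR-AMC 2 uM; 15 min compound preincubation at room temperature.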
# SARS PLP yeast – blocks SARS-CoV papain-like protease in a yeast assay; actives 0.19% (n = 330,000); S. cerevisiae expressing SARS-CoV PLpro, growth rescue; control for the full effect not named in the record; AID 485353; Potency, µM (series often up to 32.9 µM), for inactives: at the top dose activity, positive = growth rescue; active means well fitted rising curve with a large enough effect; inconclusive means small, poorly fitted or top-dose-only effect; inactive means no such curve, though single readings can be large or run the other way; note: 0% is about no effect; nearly all actives have a fitted effect of over 55% in size; growth read by luminescence after 48 h
# Cruzain inh noDet – inhibitors of Trypanosoma cruzi cruzain without detergent. P25779. purified cruzain, Z-FR-AMC fluorescence, no detergent. Potency, µM, without a hit: max response, negative = inhibition, actives largely listed as inhibitors. actives 2.3% (n = 200,000). AID 1476;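 note: plate controls were enzyme without inhibitor for no effect and buffer without enzyme for full effect; nearly all actives have a fitted effect of over 40% in size; top concentration of the series not given in the record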
#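 Detergent-free condition (0.00005% Triton X-100) in acetate buffer pH 5.5 with DTT. 1.5 nM enzyme and compound were pre-mixed 15 min, then 2 uM Z-FR-AMC substrate added; reaction progress from fluorescence change between first and third reads (60 s).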
# * hit, by the source's call; ? = inconclusive; / = not tested or not shown; [ ] = another dose, or the depositor's remark. Unless noted, calls come from the whole dose curve; as a rule, active = well fitted curve in the direction sought with a large enough effect; inconclusive = small, poorly fitted or top-dose-only effect, or another doubt; inactive = no such curve, though single readings can be large; an effect the other way counts as inactive or inconclusive. Potency is the fitted concentration of half-maximal effect.
SMILES,NS1 inh,LASV entry inh,2A StopGo,MARV entry inh,RE007 growth inh,Cruzain inh Det,SARS PLP yeast,Cruzain inh noDet
Cc1ccc(Cn2c(CCNC(=O)c3cccc(C)c3)nc3ccccc32)cc1,/,-2%[46.1 µM],-29%,?,/,5µM*,/,25%
Oc1c(Br)cc(Br)cc1C=NCc1ccccc1,/,13%[46.1 µM],-8%,?,?,/,6%,/
CCc1nn(CC(=O)NC(C)CC)c(=O)c2cc3occc3n12 (stereo unspecified),/,11%[46.1 µM],-8%,0%[46.1 µM],/,-2.2%,/,5%
Cc1ccc2nc(SCC3CCCCO3)[nH]c2c1 (stereo unspecified),-2%,?,?,2.8µM*,/,/,0%,/
CCNC(=O)/C=C/c1ccccc1[N+](=O)[O-],1%,/,7%,/,20%,/,-1%,/
O=C(O)CCN(Cc1ccccc1)S(=O)(=O)c1ccccc1Cl,/,-10%,-10%,20%[46.1 µM],1%,/,-1%,/
Cc1cccc(CSc2nnc([C@@H]3CCCN3C(=O)OC(C)(C)C)o2)c1,-6%,?,-12%,-2%,3%,/,0%,/
C=CCn1c(=O)c2c(C)c(C)sc2n2c(Nc3ccccc3)nnc12,10%,17%,-24%,-16%,-4%,-4.6%,3%,8%
C=CCn1c(O)c(N=NC(=S)Nc2ccc(OC)cc2)c2ccccc21,8%,?,-13%,?,-15%,-1.8%,8%,?
CC(C)(C)NC(=O)c1cc(Cl)ccc1[N+](=O)[O-],3%,-1%,-20%,-1%,0%,1.9%,-3%,-20%
CCOC(=O)C(=NC(C)CC)NNc1ccc(Br)cc1 (stereo unspecified),-62%,1%[46.1 µM],-1%,?,36%,-2.4%,-84%,-4%
OC(CN1CCOCC1)Cn1c(-c2cccc(Cl)c2)nc2ccccc21 (stereo unspecified),1%,12%,1%,6%,-3%,1.8%,-1%,2%
O=S(=O)(Nc1cccc(-c2ccc(N3CCCCCC3)nn2)c1)c1ccc(C(F)(F)F)cc1,22%,?,32%[activator],?,-9%,/,4%,/
COc1ccc(-c2cc(-c3cccs3)c(C#N)c(SCC(=O)NCc3ccccc3OC)n2)cc1,-6%,?,-15%,?,-4%,5.7%,4%,?
CCn1c(C)c(C(C)=O)c(N2CCN(c3ccc(F)cc3)CC2)nc1=S,1%,?,-1%,-22%,-4%,0.5%,-8%,2%
Cc1cc(OCCn2cncn2)ccc1[N+](=O)[O-],19%,/,-5%,/,1%,/,2%,/
Clc1ccc(CNC2CN3CCC2CC3)cc1 (stereo unspecified),1%,-7%,-18%,0%,-7%,0.7%,-12%,3%
Cc1cc(S(=O)(=O)N2CCOCC2)ccc1OCC(=O)NCC1CCCO1 (stereo unspecified),-11%,?,-17%,3%[46.1 µM],30%,/,-1%,/
CN1CCC(N(C)C(=O)c2ccccc2Nc2ccc(SC(F)F)cc2)CC1,-5%,-12%,3%,?,4%,-3.0%,1%,0%
O=C(COC(=O)C12CC3CC(CC(C3)C1)C2)NCc1ccco1,-5%,6%,-19%,-11%,2%,0.9%,-6%,-13%
Cc1ccc(/C=N/NC(=O)C(=O)N/N=C/c2ccc(C)o2)o1,/,-9%[46.1 µM],-14%,-18%[46.1 µM],4%,/,-7%,/
CCCOc1ccc(N2C(=O)CC(N3CCC(O)(c4cccc(C(F)(F)F)c4)CC3)C2=O)cc1 (stereo unspecified),-130%,-21%,?,4%[46.1 µM],32µM*,-8.7%,-51%,?
COc1cc2nc(C3CCC3)n(NC(=O)C3CCC(OC)CC3)c(=O)c2cc1OC (stereo unspecified),-6%,-14%[14.3 µM],-5%,-2%,-10%,3.8%,4%,?
CCOC(=O)C1CCN(CC(=O)c2c(C)[nH]c3ccccc23)CC1,10%,7%,-8%,1%,0%,0.1%,-2%,-10%
COc1ccc(C(=O)N=c2c(C#N)cc3c(=O)n4cccc(C)c4nc3n2Cc2ccco2)cc1,16%,/,/,-1%,/,-5.8%,5%,0%
# The listing continues:
SMILES,NS1 inh,LASV entry inh,2A StopGo,MARV entry inh,RE007 growth inh,Cruzain inh Det,SARS PLP yeast,Cruzain inh noDet
O=[N+]([O-])c1ccc(N2CCN(CC(O)COc3ccccc3)CC2)cc1 (stereo unspecified),-1%,-21%,?,?,-17%,/,0%,/
CC(=O)Nc1ccc(C(=O)N2CCN(C(=O)c3ccco3)CC2)cc1,-7%,6%,/,18%,1%,-4.2%,1%,3%
CCCN(Cc1nnc(-c2cccs2)o1)C(=O)c1cccc(S(=O)(=O)N2CCOCC2)c1,/,2%,-7%,-8%,1%,/,0%,/
Cc1cc(C)c2nc(-n3nc(C)cc3N)cc(C)c2c1,22%,3%,32%[activator],?,-11%,/,0%,/
O=C(O)c1cccc2cc(-c3ccccc3)oc(=O)c12,1%,/,-2%,/,8%,/,1%,/
C[C@H]1CN=C(Nc2ccccc2)N1CC1CCCCC1,4%,/,-10%,/,-5%,/,-6%,/
CCC(C(=O)OCC(=O)Nc1c(Cl)cc(Cl)cc1Cl)c1ccccc1 (stereo unspecified),-15%,/,3%,/,-7%,-5.7%,-61%,2%
Cc1cccc(NC(=O)c2oc3ccccc3c2NC(=O)c2cc(=O)c3ccc(C)cc3o2)c1,/,-1%[46.1 µM],-11%,0%[46.1 µM],/,-2.5%,/,12%
Cc1cc(C)c(NC(=O)CCCSc2nnc(N)s2)c(C)c1,-3%,/,-9%,/,-27%,/,0%,/
O=C(CCCn1c(=S)[nH]c2cc3c(cc2c1=O)OCO3)N1CCN(c2ccccc2)CC1,2%,-11%,-13%,9%,-4%,-3.6%,8%,-7%
COc1ccc(Cl)cc1NC(=O)c1c(NCc2ccc(C)o2)sc2c1CCCC2,/,-2%[46.1 µM],-19%,/,/,-17%,/,-9%
Cc1ccc(OCC(=O)NC2CCSc3ccccc32)cc1 (stereo unspecified),/,-4%,52%[activator],27%,-21%,/,-7%,/
CC(C)c1ccc(C2/C(=C(\O)c3ccc4c(c3)OCCO4)C(=O)C(=O)N2CCN2CCOCC2)cc1 (stereo unspecified),11%,/,-10%,/,-1%,/,2%,/
CCCCN(C)CCNC(=O)CCn1nc(-c2ccc(C)cc2)ccc1=O,3%,?,0%,?,8%,/,-1%,/
CCOC(=O)CNC(=O)c1ccc(C)cc1,-6%,11%,20%,3%[46.1 µM],1%,-2.2%,-3%,-3%
O=C1CC(Cc2ccccc2)C(=O)N1CCCn1ccnc1 (stereo unspecified),0%,/,/,5%,/,10%,2%,-4%
CCCN1C2=NCCCN2c2ccccc21,4%,13%,/,-19%,4%,3.2%,6%,1%
O=C(Nc1ccccc1N1CCOCC1)C1=COCCO1,/,?,-4%,8%,-27%,/,0%,/
COc1ccc(N(C)C(=O)c2ccc3c(Cl)c4c(nc3c2)CCCC4)c(OC)c1,-35%,/,-17%,/,-1%,/,-6%,/
COc1ccccc1C1(CC(=O)Nc2nccs2)CCOC(C(C)C)C1 (stereo unspecified),2%,-23%,?,?,-22%,-4.4%,-7%,4%
NC(=O)CC[C@H](NC(=O)OCc1ccccc1)C(=O)OCc1ccc(Cl)cc1,13%,?,-13%,-9%,17%,-2.9%,32%,?
O=C(OCC(=O)N1CCN(C(=O)c2ccco2)CC1)c1c(Cl)cccc1Cl,/,-11%,-1%,23%,-12%,/,1%,/
CN=c1scc(-c2ccccc2F)n1/N=C(\C)c1cccnc1,2%,?,-8%,?,5%,/,-29%,/
CCN(Cc1ccccc1)C(=O)CCc1nnc(CCCc2ccccc2)o1,-3%,?,26%,?,-17%,/,-2%,/
CC(C)CC(=O)c1c[nH]c(C(=O)NCCc2ccccn2)c1,4%,-4%,0%,1%,7%,2.1%,-4%,1%

# Laid out differently: results already given
> O=C(CCCn1c(=S)[nH]c2cc3c(cc2c1=O)OCO3)N1CCN(c2ccccc2)CC1
  NS1 inh: 2%
  LASV entry inh: -11%
  2A StopGo: -13%
  MARV entry inh: 9%
  RE007 growth inh: -4%
  Cruzain inh Det: -3.6%
  SARS PLP yeast: 8%
  Cruzain inh noDet: -7%
> COc1ccc(Cl)cc1NC(=O)c1c(NCc2ccc(C)o2)sc2c1CCCC2
  NS1 inh: /
  LASV entry inh: -2%[46.1 µM]
  2A StopGo: -19%
  MARV entry inh: /
  RE007 growth inh: /
  Cruzain inh Det: -17%
  SARS PLP yeast: /
  Cruzain inh noDet: -9%
> Cc1ccc(OCC(=O)NC2CCSc3ccccc32)cc1 (stereo unspecified)
  NS1 inh: /
  LASV entry inh: -4%
  2A StopGo: 52%[activator]
  MARV entry inh: 27%
  RE007 growth inh: -21%
  Cruzain inh Det: /
  SARS PLP yeast: -7%
  Cruzain inh noDet: /
> CC(C)c1ccc(C2/C(=C(\O)c3ccc4c(c3)OCCO4)C(=O)C(=O)N2CCN2CCOCC2)cc1 (stereo unspecified)
  NS1 inh: 11%
  LASV entry inh: /
  2A StopGo: -10%
  MARV entry inh: /
  RE007 growth inh: -1%
  Cruzain inh Det: /
  SARS PLP yeast: 2%
  Cruzain inh noDet: /

# High-throughput results: PubChem BioAssay, National Center for Advancing Translational Sciences (NCATS)
